KCNQ2 inh: KCNQ2 potassium channel inhibitors, primary screen, cell-based, CHO-K1, FluxOR thallium flux, B-score (AID 2156) | Potassium voltage-gated channel subfamily KQT member 2 (Rattus norvegicus), O88943 | 20 min; active compounds read low; only compounds with negative scores are shown here; some inactives read as strong as hits | B-score at 10 µM | 310,000 tested, 1.1% active;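 active means fluorescence ratio B-score at most minus 3 library SDs, with starting brightness B-score within 2 library SDs, cut at about -5.5 in these data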
Target sequence (O88943 whole entry, looked up): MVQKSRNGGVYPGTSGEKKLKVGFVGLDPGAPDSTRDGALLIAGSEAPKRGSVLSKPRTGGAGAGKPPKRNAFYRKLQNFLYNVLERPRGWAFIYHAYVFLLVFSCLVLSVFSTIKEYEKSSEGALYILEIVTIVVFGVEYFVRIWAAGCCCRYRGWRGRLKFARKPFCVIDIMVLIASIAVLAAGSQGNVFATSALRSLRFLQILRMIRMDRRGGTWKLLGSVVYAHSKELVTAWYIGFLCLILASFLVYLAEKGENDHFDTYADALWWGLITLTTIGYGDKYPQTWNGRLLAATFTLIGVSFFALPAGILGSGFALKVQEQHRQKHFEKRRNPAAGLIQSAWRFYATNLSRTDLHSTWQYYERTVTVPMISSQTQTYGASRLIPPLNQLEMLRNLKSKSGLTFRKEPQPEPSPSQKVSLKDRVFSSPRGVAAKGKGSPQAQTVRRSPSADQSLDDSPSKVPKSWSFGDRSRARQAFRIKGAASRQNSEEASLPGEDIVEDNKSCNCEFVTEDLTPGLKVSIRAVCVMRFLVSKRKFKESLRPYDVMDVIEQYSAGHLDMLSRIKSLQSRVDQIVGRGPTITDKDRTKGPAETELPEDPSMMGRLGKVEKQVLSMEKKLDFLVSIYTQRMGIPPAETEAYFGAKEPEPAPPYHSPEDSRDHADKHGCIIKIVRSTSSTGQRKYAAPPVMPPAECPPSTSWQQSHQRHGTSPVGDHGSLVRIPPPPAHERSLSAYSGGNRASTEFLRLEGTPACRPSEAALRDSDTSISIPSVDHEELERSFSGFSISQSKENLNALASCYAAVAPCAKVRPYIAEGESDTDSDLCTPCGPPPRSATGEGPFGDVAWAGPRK
KCNQ2 inh baseline: further read-out of KCNQ2 inh, marked with its call; B-score; measured here: initial fluorescence intensity artifact check;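 brightness before thallium and not channel activity; 0 = typical well and far values either way flag optical interference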
An asterisk follows results filed as active; i = inactive. A portion of the library; rates above refer to the full screens.

no.	structure	KCNQ2 inh	KCNQ2 inh baseline
1	Cc1oc(-c2cccc(Cl)c2)nc1CS(=O)(=O)CC(=O)NCCN1CCOCC1	i	0.18
2	CC(NC(=O)/C(C#N)=C/c1ccc(C(=O)O)cc1)c1ccccc1 (stereo not drawn)	i	1.8
3	Cc1ccc(-n2c(C)csc2=N)cc1	i	-1.1
4	CN(C)c1ccc(CNC(=O)C2CCN(S(=O)(=O)c3ccc4c(c3)CCCC(=O)N4)CC2)cc1	i	0.42
5	O=S(=O)([O-])CCC[n+]1c(/C=C\Nc2ccccc2)oc2ccc(-c3ccccc3)cc21	i	2.6
6	Cc1c(OC(C)C(=O)NCCN2CCOCC2)ccc2c(-c3ccccc3)cc(=O)oc12 (stereo not drawn)	i	-1.2
7	CCOC(=O)CSc1nnc(-c2c[nH]c3ccccc23)n1CC	i	0.76
8	Cc1cc(C(=O)COC(=O)c2ccc(O)cc2)c(C)n1CCc1ccc(F)cc1	i	-0.02
9	Cc1ccc(S(=O)(=O)N2CCC(C(=O)Nc3nnc(COc4ccccc4)s3)CC2)cc1	i	0.75
10	O=C(c1ccc(OC2CCN(Cc3ccc(C(F)(F)F)cc3)CC2)cc1)N1CCCCC1	i	-0.15
11	Cc1ccc2[nH]c(C(=O)NCCN3CCCC3)cc2c1	i	1.5
12	C=CCNC(=O)c1ccc(N(Cc2ccc(Cl)cc2)S(C)(=O)=O)cc1	i	2.4
13	COCCOc1ccc(C(F)(F)F)cc1NC(=O)c1ccccc1	i	-0.55
14	Cc1cccc(NC(=O)C2CCCN(c3ncnc4c3nc3n4CCCCC3)C2)n1 (stereo not drawn)	i	-1.8
15	COc1cc(OC)c(NC(=S)Nc2cccc(C(C)=O)c2)cc1Cl	i	-0.18
16	CC(=O)c1cccc(CN2CCN(CCC(C)C)C(CCO)C2)c1 (stereo not drawn)	i	-0.45
17	Cn1ccnc1Sc1nc(Nc2cccc(Cl)c2)nc(N2CCOCC2)n1	-6.2*	-0.14*
18	O=c1cnc2ccccc2n1Cc1ccc(Br)cc1	i	0.01
19	COC(=O)c1n[nH]nc1-c1ccccc1	i	-0.2
20	O=S(=O)(Nc1ccc(O)c(NS(=O)(=O)c2ccccc2)c1)c1ccccc1	i	-0.99

The list goes on; it opens with the seven that closed the last part.
no.	structure	KCNQ2 inh	KCNQ2 inh baseline
14	Cc1cccc(NC(=O)C2CCCN(c3ncnc4c3nc3n4CCCCC3)C2)n1 (stereo not drawn)	i	-1.8
15	COc1cc(OC)c(NC(=S)Nc2cccc(C(C)=O)c2)cc1Cl	i	-0.18
16	CC(=O)c1cccc(CN2CCN(CCC(C)C)C(CCO)C2)c1 (stereo not drawn)	i	-0.45
17	Cn1ccnc1Sc1nc(Nc2cccc(Cl)c2)nc(N2CCOCC2)n1	-6.2*	-0.14*
18	O=c1cnc2ccccc2n1Cc1ccc(Br)cc1	i	0.01
19	COC(=O)c1n[nH]nc1-c1ccccc1	i	-0.2
20	O=S(=O)(Nc1ccc(O)c(NS(=O)(=O)c2ccccc2)c1)c1ccccc1	i	-0.99
21	O=C1/C(=C/c2cccnc2)SC(=S)N1c1ccc(F)cc1	i	-0.2
22	COc1ccc(OCCCC(=O)Nc2cc([N+](=O)[O-])ccc2C)cc1	i	1.6
23	CCc1ccc(C2NC(=O)c3ccccc3O2)cc1 (stereo not drawn)	i	-1.6
24	O=C(Nc1nccs1)C1CCCN1S(=O)(=O)c1ccc(F)cc1 (stereo not drawn)	i	0.27
25	COC(=O)c1cc(S(=O)(=O)N2CCCC(C)C2)c[nH]1 (stereo not drawn)	i	-0.45
26	Cc1cc(C)n2nc(C(=O)OCC(=O)Nc3ccc4c(c3)OCO4)nc2n1	i	-0.67
27	CCc1ccccc1NC(=O)CN(C)C(=O)CSc1nn(-c2ccccc2)c(=S)s1	i	0.38
28	O=C(Cc1cccs1)N1CCN=C1SCc1cccc(F)c1	i	1.5
29	Cc1nn(C)cc1CN(C)C(=O)c1ccc(OC2CCN(Cc3ccccn3)CC2)cc1	i	-1.7
30	O=C(CCC(=O)c1cccs1)OCC(=O)c1ccc(Cl)s1	i	0.51
31	CC(=O)O[C@@H]1[C@H](OC(=O)CC(C)C)c2c(ccc3ccc(=O)oc23)OC1(C)C	i	0.12
32	O=C(NC1CCCc2ccccc21)C1CCN(S(=O)(=O)c2cnc[nH]2)CC1 (stereo not drawn)	i	-0.27
33	O=C(O)CCSCC(=O)Nc1c(C(=O)C2CC2)oc2ccccc12	i	-1.3
34	Cc1ccc(-n2nc(C(N)=O)nc2-c2ccccc2)cc1	i	1.9
35	COC(=O)c1cc(C(=O)c2c(C)cc3ccccn23)cc([N+](=O)[O-])c1	i	-0.3
36	CC(OC(=O)c1ccc2ncsc2c1)C(=O)Nc1ncc(Cl)cc1Cl (stereo not drawn)	i	3.6
37	Cc1c(Cl)cccc1NC(=O)c1ccc(-n2ccnc2)nc1	i	0.16
38	CCOC(=O)C1(Cc2ccccc2)CCN(Cc2ccc(C)s2)CC1	i	-0.27
39	COc1cc(C(=O)Nc2ccc(NC(C)=O)cc2)ccc1OCc1ccccc1	i	0.04
40	CSc1nnc(C)c(=O)n1COC(=O)c1ccc([N+](=O)[O-])cc1	i	1.6

The list goes on (2 carried over from the part before).
no.	structure	KCNQ2 inh	KCNQ2 inh baseline
39	COc1cc(C(=O)Nc2ccc(NC(C)=O)cc2)ccc1OCc1ccccc1	i	0.04
40	CSc1nnc(C)c(=O)n1COC(=O)c1ccc([N+](=O)[O-])cc1	i	1.6
41	CCOc1ccccc1CN1CCN(Cc2c[nH]c3ccccc23)CC1CCO (stereo not drawn)	i	0.68
42	Cc1ccc(C(=O)N2CCN=C2SCc2ccc([N+](=O)[O-])cc2)cc1	i	-0.14
43	O=C(NCc1ccccn1)C1Nc2ccc(OC(F)(F)F)cc2C2C=CCC12 (stereo not drawn)	i	-0.13
44	COc1ccccc1N1CC(C(=O)OCC(=O)Nc2c(C)cccc2C)CC1=O (stereo not drawn)	i	0.15
45	C=CCOC(=O)C(C#N)c1nc2ccccc2nc1N1CCN(c2ccccc2OC)CC1 (stereo not drawn)	i	4.4
46	COc1ccc(C)cc1S(=O)(=O)N(CC(=O)NC1CCCC1)c1ccc(F)cc1	i	-0.94
47	CCN(CC(=O)NCc1ccc(Cl)cc1)C(=O)c1cnc(Cl)c(Cl)c1	i	1.4
48	CC(C)CCNC(=O)C(C)N(C(=O)Cn1nnc(-c2ccc(F)cc2)n1)C1CCCC1 (stereo not drawn)	i	-2.8
49	Cc1nn(-c2ccccc2)c(C)c1C(=O)OCC(=O)NC12CC3CC(CC(C3)C1)C2	i	-0.92
50	NS(=O)(=O)c1ccc(N2CCCC2=O)c([N+](=O)[O-])c1	i	1.4
51	COC(=O)CN1C(=O)N(c2ccccc2)C(N(O)C(=O)Nc2ccccc2)C1(C)C (stereo not drawn)	i	-1.4
52	COCCN(CCOC)S(=O)(=O)c1ccc(NC(=O)c2cnccn2)cc1	i	0.57
53	O=C(NC1CC1)c1nc2c(nnn2Cc2ccccc2Cl)c(=O)[nH]1	i	-0.05
54	Cc1oc(-c2ccccc2Cl)nc1CN1CCCC1c1ccc(F)cc1 (stereo not drawn)	i	0.63
55	O=C1C=C(NCc2ccc3c(c2)OCO3)CC(c2ccccc2)C1 (stereo not drawn)	i	0.44
56	CN1CCN(C(=O)CCNC(=O)Cn2ccc3ccccc3c2=O)CC1	i	-1.8
57	CCOC(=O)C1CSC(CC(=O)Nc2ccc(OCC)cc2)C(=O)N1 (stereo not drawn)	i	1.3
58	Cc1nnnn1/C(=C\c1ccccc1)C(=O)OCC(=O)NC1CCCCC1	-6*	1.3*
59	COc1ccc(CNC(=O)C2CCN(C(=O)c3ccco3)CC2)cc1	i	-1.1
60	Cc1oc(C(C)(C)C)c(CN2CCCC2)c1C(=O)O	i	1.1
61	COc1ccccc1CNC(=O)c1cccc(-c2ccc(C)c3ccccc23)n1	i	-1.5
62	CCN(CC(=O)NCc1ccc(Cl)cc1)CC(=O)Nc1ccc(C(N)=O)cc1	i	-0.28
63	COC(=O)CSc1nc2c(cnn2-c2ccc(Cl)cc2)c(=O)[nH]1	i	1.2
64	CCOc1ccccc1NC(=O)CSc1nnnn1-c1ccc(C(=O)OC)cc1	i	0.44
65	CCN(CC)CCN(C(=O)c1ccc(C(=O)c2ccccc2)cc1)c1nc2c(OC)cccc2s1	i	-1.2
66	CCCCCCNS(=O)(=O)c1nc2nc(C)cc(C)n2n1	i	0.8
67	COc1ccc(Br)cc1C(=O)Nc1ccc(N2CCN(S(C)(=O)=O)CC2)cc1	i	1
68	CCn1c(C)nc2cc(C(=O)NNC(=S)NC(=O)c3ccc(OC)cc3)ccc21	i	2.8
69	C/C(NC(=O)c1cccs1)=C1\C(=O)C[C@@H]2[C@H]1C2(C)C	i	-1.9
70	Cc1ccnc(NC(=O)CCC(=O)N(CC(=O)NC(C)(C)C)c2ccc(F)c(Cl)c2)c1	i	-0.25
71	Cc1nc2c3ccccc3n(CC#N)c(=O)n2n1	i	-0.99
72	O=C(Nc1nc(-c2ccc([N+](=O)[O-])cc2)cs1)c1c(F)cccc1F	i	0.37
73	Cc1ccc(-n2nnnc2SCC(=O)N2CC(=O)Nc3ccccc32)cc1	i	4
74	Cc1ccccc1CNC(=O)C(=O)NCCC1CCCCN1S(=O)(=O)c1ccccc1 (stereo not drawn)	i	0.06
75	CC1CCN(C(=O)Cn2c(=O)n(CCCC(=O)NCc3ccco3)c(=O)c3sccc32)CC1	i	1.7
76	Cc1ccc(C(=O)O/N=C(\N)c2ccccn2)c(Cl)c1	i	0.88
77	CCOc1ccc(/C=N/OCC(=O)NC(c2ccccc2)c2ccccc2)cc1	i	0.54
78	Cc1ccc(CNC(=O)CN2CCN(c3ccc(F)cc3)CC2)cc1	i	0.18
79	Cc1cc(C)n(-c2cccc(CN3CCC(CO)(Cc4ccccc4)CC3)c2)n1	i	-0.21
80	COc1cc(C(=O)NC2CC3CCCC(C2)N3C2CC2)cc(OC)c1OC (stereo not drawn)	i	1.2
81	COc1cccc(-c2nc(CS(=O)(=O)CC(=O)Nc3cc(F)ccc3F)c(C)o2)c1	i	0.54
82	Cc1csc(C(=O)O)c1NC(=O)c1c(Cl)cccc1Cl	i	0.22
83	CCOc1ccc(CN(C(=O)c2ccccn2)c2ccc(OC)c(Cl)c2)cc1	i	-0.21
84	CC(=O)C1=C(O)C(=O)N(CCc2c[nH]c3ccccc23)C1c1ccccc1 (stereo not drawn)	i	-1.4
85	Cc1sc2nc(CN3CCCC3)nc(N3CCN(C(=O)c4ccco4)CC3)c2c1C	i	1.1
86	CCOc1ccc(NC(=O)CSc2nc(C3CC3)nc3ccccc23)cc1	i	0.99
87	CC1CCc2sc(C(=O)Nc3ccc(C(N)=O)cc3)cc2C1 (stereo not drawn)	i	0.01
88	O=C(CNC(=O)c1cccc(OC(F)F)c1)Nc1ccc(Cl)cc1	i	-0.21
89	O=C(/C=C/c1ccccc1)c1ccccc1O	i	-0.07
90	O=C1Nc2ccc(Br)cc2/C1=N/N=C/C1=C(N2CCOCC2)C(=C\c2ccccc2)/CC1	i	-2.9
91	CCc1ccc(CCN2C(=O)c3ccccc3C2=O)nc1	i	-1.2
92	O=C(/C=C/c1cn(-c2ccccc2)nc1-c1ccc2c(c1)OCCO2)NCCCN1CCOCC1	i	-0.41
93	CC1CC(C)CN(CCOCCSc2ccccc2)C1 (stereo not drawn)	i	0.67
94	CC(Sc1ccc(Cl)cc1)C(=O)NCc1cccnc1 (stereo not drawn)	i	0.39
95	CCN1CCN(C(=O)C23CCC(C)(C(=O)C2Br)C3(C)C)CC1 (stereo not drawn)	i	-0.75
96	O=C1/C(=C/c2ccc(O)cc2)SC(=S)N1Cc1cccnc1	i	-1.8
97	Cc1cccc2sc(NC(=O)CCNS(=O)(=O)c3cccs3)nc12	i	1.6
98	O=C(Nc1ccc(Cl)cc1)C1c2cccc[n+]2CC(=O)N1Cc1ccc2c(c1)OCO2 (stereo not drawn)	i	0.81
99	CC12C(=O)N(NC(=O)c3ccncc3)C(=O)C1C1C=CC2C1 (stereo not drawn)	i	1.6
100	C=CCSc1nc(-c2ccc3c(c2)OCO3)cc(C(F)(F)F)c1C#N	i	-0.64

More compounds:
no.	structure	KCNQ2 inh	KCNQ2 inh baseline
101	NC(N)=NC1=NC(=O)C(Cc2ccccc2)S1 (stereo not drawn)	i	0.29
102	COc1ccc(NC(=O)/C=N/O)cc1	i	10
103	CC1CCc2nn(CC(=O)N3CCN(C(=O)c4ccco4)CC3)cc2C1 (stereo not drawn)	i	1
104	Cc1cnc(NS(=O)(=O)c2ccccc2)c(C)n1	i	-0.01
105	COc1cccc(C(=O)NN=C2CCCC2)c1	i	-1.1
106	CNC(=O)c1ccsc1NC(=O)c1coc2ccccc2c1=O	i	1.1
107	O=C(CSc1nnc(CNC(=O)C23CC4CC(CC(C4)C2)C3)n1-c1ccccc1)Nc1ccc(F)cc1	i	-2.4
108	FC(F)(F)c1cc(-c2cccs2)n[nH]1	i	-0.02
109	COc1ccccc1OCCCn1cc(C#N)c2ccccc21	i	2.2
110	Cc1nc2cccc(C(=O)Oc3ccc([N+](=O)[O-])cc3)c2o1	i	-0.84
111	CCOC(=O)N1CCN(C(=O)COC(=O)Cc2ccc(Cl)cc2)CC1	i	-0.73
112	O=C(Nc1ccnn1C1CCN(C(=O)c2ccccc2C(F)(F)F)CC1)C1CC1	i	-1.5
113	Cc1ccc(S(=O)(=O)NCCC(C)C)cc1[N+](=O)[O-]	i	-0.86
114	CC(C)NC(=S)NC(=O)/C=C/c1cccc2ccccc12	i	0.3
115	COC(=O)C1=CN(C2CC2)C=C(C(=O)OC)C1c1ccccc1OC	i	-0.22
116	CCCc1ccccc1OCCNC(=O)c1cc(=O)n(C)c(=O)n1C	i	-0.23
117	O=C(CN1C(=O)NC2(CCSC2)C1=O)NCc1ccccc1 (stereo not drawn)	i	0.4

High-throughput results as filed in PubChem.
